# Assay outcomes: PubChem, several laboratories
# rRNA inh HTS = inhibitors of bacterial rRNA selective over humanized ribosomes; E. coli WT GFP vs humanized-ribosome RFP mutants, fluorescence, 24 h; hits give low values; DMSO median 0, no signal -100; GFP signal change (wild-type ribosome), % (no concentration beside the values); actives 1.6% (n = 350,000); AID 720706;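 active = significant combined selectivity score with lowered wild-type GFP, culture density cut under 30%, mutant RFP and density less affected; inactive = any of these conditions unmet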; note: one replicate is shown; some compounds called inactive have numbers as strong as hits
# A1 inh = inhibitors of the anti-apoptotic protein A1, read as caspase activation | MEF A1-2A-BIM cells, Caspase-Glo 3/7 luminescence, 3 h; percent of clofoctol response, vehicle zero | AID 2462 | caspase activation, % (test concentration not listed) | actives 0.066% (n = 330,000);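 active = over half of replicate activation scores above 10%, or exactly half above 10 with the replicate mean above 10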;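 note: wells of about 30 µL received 50 nL stock; many hits fall short of the cut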
# AF4-AF9 inh = MLL-AF4/AF9 protein interaction inhibition; actives 0.47% (n = 350,000); P42568; inhibition, % at 10 µM; AlphaScreen, biotin-AF4 peptide binding to FLAG-AF9; AID 651704;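 active = every replicate reaching a set inhibition limit, whatever the replicate mean, cut at about 25% in these data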;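 note: 0% = plate neutral control median and 100% = total signal loss; the record names both 10 and 1 µM as test concentration; the first replicate is given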
# Target sequence (P42568 whole entry, looked up): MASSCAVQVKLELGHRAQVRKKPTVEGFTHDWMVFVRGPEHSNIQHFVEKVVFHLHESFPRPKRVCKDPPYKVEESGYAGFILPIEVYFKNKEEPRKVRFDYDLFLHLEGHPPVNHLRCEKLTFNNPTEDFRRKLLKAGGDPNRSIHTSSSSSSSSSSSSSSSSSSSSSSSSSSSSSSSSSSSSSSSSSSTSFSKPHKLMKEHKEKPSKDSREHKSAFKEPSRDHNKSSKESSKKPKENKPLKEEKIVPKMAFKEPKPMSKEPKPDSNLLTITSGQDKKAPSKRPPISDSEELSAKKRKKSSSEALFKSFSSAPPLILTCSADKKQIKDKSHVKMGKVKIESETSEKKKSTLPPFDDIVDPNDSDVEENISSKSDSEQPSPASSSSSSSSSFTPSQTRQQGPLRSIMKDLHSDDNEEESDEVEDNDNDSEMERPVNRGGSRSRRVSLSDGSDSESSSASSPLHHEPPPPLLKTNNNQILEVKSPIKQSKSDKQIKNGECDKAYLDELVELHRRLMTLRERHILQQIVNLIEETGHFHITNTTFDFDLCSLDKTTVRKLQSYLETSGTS
# T cruzi repl = T. cruzi replication inhibition; T. cruzi beta-gal in NIH3T3, luminescence, 90 h; inhibition, % (no concentration beside the values); actives 1.4% (n = 300,000);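 active = mean inhibition across valid replicates above about 55%, limit read from the data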;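 note: signal also drops with host cell toxicity which is not excluded here; 0% = plate median of DMSO wells and 100% = zero luminescence signal; higher percent means less beta-gal luminescence so fewer parasites; stock transfer was 50 nL into about 50 µL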
# FGF22 binding = binders of recombinant human FGF22 by thermal shift; Q9HCT0; SYPRO orange fluorescence; percent of sucrose octasulfate shift, DMSO zero; calls only at 9.99 µM; actives 1.5% (n = 340,000); AID 651658;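 active = melting point raised past a set limit in the mean and every replicate; three in four hits are not shown here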
# Target sequence (Q9HCT0 whole entry, looked up): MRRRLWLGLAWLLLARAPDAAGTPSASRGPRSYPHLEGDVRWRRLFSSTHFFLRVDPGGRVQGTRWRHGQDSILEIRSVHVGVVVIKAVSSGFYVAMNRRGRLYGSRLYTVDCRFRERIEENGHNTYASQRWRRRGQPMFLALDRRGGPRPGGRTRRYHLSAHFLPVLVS
# Beta cell apopt = blocks beta cell apoptosis; protection from apoptosis, % (no concentration beside the values); actives 0.8% (n = 300,000); INS-1E cytokine-induced death, ATP luminescence, 48 h; percent of positive-control rescue, neutral wells zero;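 active = all replicates at 75% or more, or half of them and the mean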;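 note: 0% = cytokine-treated negative control wells and 100% = positive control rescue; higher means more ATP so stronger rescue from cytokine killing; wells of about 40 µL received 100 nL stock; the first replicate is given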
# UCH37 inh = human UCH37 deubiquitinating enzyme inhibition | inhibition, % (test concentration not listed) | purified proteasome/UCH37, Ub-AMC cleavage fluorescence | Q9Y5K5 | actives 0.33% (n = 330,000) | AID 588478;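 active = mean of two replicates above 20%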;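 note: 0% = compound-free wells with enzyme and 100% = wells lacking proteasome; stock transfer was 100 nL into about 20 µL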
# Target sequence (Q9Y5K5 whole entry, looked up): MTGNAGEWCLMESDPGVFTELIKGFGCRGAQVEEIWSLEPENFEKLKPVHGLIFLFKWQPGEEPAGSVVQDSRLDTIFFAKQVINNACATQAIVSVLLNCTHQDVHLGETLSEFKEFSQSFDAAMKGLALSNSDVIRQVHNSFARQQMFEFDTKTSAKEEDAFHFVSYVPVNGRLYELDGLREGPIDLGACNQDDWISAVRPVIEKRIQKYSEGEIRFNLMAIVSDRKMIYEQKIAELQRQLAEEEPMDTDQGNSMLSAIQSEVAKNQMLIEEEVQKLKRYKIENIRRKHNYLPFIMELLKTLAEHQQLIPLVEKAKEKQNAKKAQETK
#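 system = Proteasome-associated human UCH37 deubiquitinase | amount = 0.15 nM proteasome as dispensed | medium = pH 7.4 Tris-HCl (50 mM) with ovalbumin, ATP-MgCl2, DTT | incubation = 30 min preincubation with enzyme, 25 min cleavage at room temperature | detection = AMC fluorescence 355/460 nm | read-out basis = percent inhibition | controls = no-proteasome and no-compound wells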
# Ecoli growth = E. coli growth inhibition | Escherichia coli growth, OD600, 23 h; hits give low values | OD600 absorbance (concentration not given with the values) | actives 0.21% (n = 330,000);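 active = OD600 absorbance below the run mean of sample wells minus 3.6 SD, in any replicate, cut at about 0.56 in these data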;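 note: stock transfer was 300 nL into about 60 µL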
# rRNA inh HTS OD600 = further read-out of rRNA inh HTS, marked with its call; OD600 change, %; measured here: OD600 growth;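 optical density of the mix in the first replicate; 0 = DMSO median and -100 = no signal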
# rRNA inh HTS RFP = further read-out of rRNA inh HTS, marked with its call; RFP signal change, %; measured here: RFP humanized mutant strains;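 first replicate; 0 = DMSO median and -100 = no signal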
# * hit, by the source's call; i = inactive; . = not tested or not shown; + = active, no number. A portion of the library; the hit share may differ from the screen's.
SMILES,rRNA inh HTS,rRNA inh HTS OD600,rRNA inh HTS RFP,A1 inh,AF4-AF9 inh,T cruzi repl,FGF22 binding,Beta cell apopt,UCH37 inh,Ecoli growth
COc1ccc(C)cc1NC(=O)COC(=O)c1ccccc1SCC(=O)N1CCCC1,-0.4,6.4,-2.1,-0.6,0.4,-11.7,i,.,2.1,0.709
Cc1nn(CCOc2ccccc2Cl)c(C)c1[N+](=O)[O-],4.4,10.1,0.6,0.5,1.0,-0.5,+,.,1.4,0.656
COCC1CCN(Cc2cn(Cc3ccccc3)nc2-c2cc3ccccc3o2)CC1,1.0,-12.6,27.1,0.3,-3.4,13.9,.,-3.0,5.7,0.698
Cc1c(C(=O)NCc2ccc(F)cc2)c(-c2ccccc2)nn1-c1ccccc1,.,.,.,0.0,.,11.9,.,3.8,4.1,0.74
COc1ccc(CN2C(=O)CC(C(=O)NCCc3ccc(S(N)(=O)=O)cc3)SC2=Nc2ccccc2)cc1 (stereo not given),-4.1,-2.2,0.3,1.7,-2.0,14.1,i,3.0,2.8,0.705
O=C(O)c1ccc(NC(=O)c2ccc(COc3ccc(Cl)cc3)o2)cc1,-3.5,-0.5,-1.2,-1.1,-11.5,-13.3,i,1.6,4.6,0.658
CC(C)[C@@H]1NC(=O)c2cc([N+](=O)[O-])cc(I)c2NCCC[C@@H](C(=O)NC(CC(=O)O)C(N)=O)NC(=O)[C@H](CO)NC1=O (stereo not given in full),.,.,.,-1.5,.,-3.1,.,1.0,3.9,.
COc1ccc(Cc2nnc(NC(=O)C3CC(=O)N(c4ccccc4)C3)s2)cc1OC (stereo not given),4.7,5.8,13.0,-0.6,-1.1,6.3,i,.,1.9,0.626
CC(C)CCN(C(=O)C1CCCC1)c1c(N)n(Cc2ccccc2)c(=O)[nH]c1=O,25.2,17.2,2.1,1.2,-3.7,.,i,0.5,-1.1,0.677
CC(Oc1ccc2c(c1)oc(=O)c1ccccc12)C(=O)NC(Cc1c[nH]c2ccc(O)cc12)C(=O)O (stereo not given),-7.9,-4.0,-2.0,0.0,0.8,8.0,i,-1.1,-37.6,0.676
CCOC(=O)C1=C(c2ccccc2)Nc2ncnn2C1c1ccc(C(=O)O)cc1 (stereo not given),9.2,15.9,-1.9,1.4,-3.0,-16.8,i,-9.7,-0.8,0.642
O=C(COC(=O)c1cccs1)Nc1ccccc1,6.3,0.6,-3.9,0.8,-9.9,-1.5,i,0.7,3.5,0.687
CCN(CC)CCN(C(=O)c1ccc2c(c1)CCCC2)c1nc2cc(OC)c(OC)cc2s1,.,.,.,0.3,.,26.3,.,1.2,-1.6,0.734
Cc1ccc(-c2nn(-c3ccccc3)cc2CO)cc1,-7.2,-4.7,0.8,0.3,6.2,1.4,i,-5.1,2.2,0.658
NC(=O)NC(=O)c1nccnc1C(=O)O,7.2,8.3,-1.9,-0.7,-0.4,0.1,i,-2.5,0.0,0.697
COc1ccc(-c2c(C)oc3c(CN4CCN(CCO)CC4)c(O)ccc3c2=O)cc1OC,.,.,.,0.1,.,-6.7,.,-7.6,-49.0,0.75
Cc1ccc(C(=O)OCC(=O)NCCNC(=O)COC(=O)c2ccc(C)s2)s1,10.3,16.6,-2.4,-0.6,0.7,-0.1,i,-1.6,3.5,0.677
CCCCCc1c(C)nc(Nc2nc(C)c3cc(OC)ccc3n2)[nH]c1=O,.,.,.,0.1,.,46.4,.,41.3,-6.4,0.753
CC(C)CCNC(=O)CSc1nc2ccsc2c(=O)n1NC(=O)c1ccccc1,.,.,.,0.1,.,-6.6,.,-1.4,2.4,0.731
Cc1ccc(P(=O)(O)c2ccc(C)cc2)cc1,.,.,.,-0.3,.,-23.7,.,4.7,0.1,0.651
CCOC(=O)c1c(C)[nH]c(C)c1S(=O)(=O)NCCc1ccc(SC)cc1,-2.4,-16.6,3.5,-0.6,5.1,-12.4,i,3.7,0.2,0.699
Cc1[nH]c2ccccc2c1/C=N/NC(=O)c1cccs1,-24.2*,-7.2*,7.3*,-0.8,7.8,-3.1,i,-10.7,.,.
N#CC1=C(N)Oc2cc(O)ccc2C1c1cccs1 (stereo not given),.,.,.,-0.3,.,-35.7,.,.,5.1,0.744
COCCNCCCCOc1ccc(Br)cc1C,.,.,.,0.3,.,22.6,.,-2.2,0.7,0.59
O=C(Nc1ccc(Cl)cc1)/C(=C/c1cccc(O)c1)c1nc2ccccc2s1,-13.1,12.2,24.5,1.1,0.1,30.1,i,105.3*,-2.3,0.732

# FGF22 binding, hit marks shown above.
SMILES	rRNA inh HTS	rRNA inh HTS OD600	rRNA inh HTS RFP	AF4-AF9 inh	FGF22 binding	UCH37 inh
Cc1nn(CCOc2ccccc2Cl)c(C)c1[N+](=O)[O-]	4.4	10.1	0.6	1.0	+	1.4

# Further compounds:
SMILES,rRNA inh HTS,rRNA inh HTS OD600,rRNA inh HTS RFP,A1 inh,AF4-AF9 inh,T cruzi repl,FGF22 binding,Beta cell apopt,UCH37 inh,Ecoli growth
Cc1ccc(CCN2CC(C(=O)N3CCN(c4ccc(F)cc4)CC3)CC2=O)cc1 (stereo not given),-9.9,-14.5,10.9,-0.2,2.0,18.8,i,0.4,-2.2,0.638
COc1ccc(OC)c(C2CC(=O)c3c([nH]c(C(=O)OC(C)C)c3C)C2)c1 (stereo not given),3.4,8.6,1.8,0.8,0.8,31.6,i,31.0,-0.4,0.762
O=C(NC1CCCCCC1)C1CCN(S(=O)(=O)c2ccc(F)cc2)CC1,.,.,.,-0.1,.,9.4,.,5.3,-0.6,0.683
COc1ccc([N+](=O)[O-])cc1NC(=O)c1ccc(CN(c2ccccc2)S(C)(=O)=O)cc1,.,.,.,-0.1,.,10.0,.,7.4,3.9,0.724
CN(Cc1ccc(F)cc1)C(=O)c1cccc(NS(=O)(=O)c2ccccc2)c1,-7.8,-15.7,1.8,2.3,-1.5,-4.9,i,-3.6,2.5,0.693
CCOc1ccc(C(=O)OCC(=O)N2CCOCC2)cc1OCC,4.8,0.2,-1.9,0.4,9.0,-4.5,i,-1.6,1.8,0.647
O=C(N/N=C\c1ccncc1)c1ccc(Cl)s1,-8.6,-6.0,-3.2,-0.5,2.2,-6.1,i,-0.8,.,.
Cc1cc(C)nc(N(C#N)Cc2ccccc2C)n1,-1.2,-6.6,-4.0,0.4,1.6,-3.4,i,0.4,-0.7,0.692
COc1ccc(NC(=O)c2sc3nc(N4CCCC4)c4c(c3c2N)CC(C)(C)OC4)cc1,-3.6,3.7,-1.1,-0.5,-4.2,22.3,i,-1.7,-225.2,0.751
CCc1ccc(S(=O)(=O)N2CC(=O)Nc3ccccc32)cc1,-29.2,0.5,13.6,-0.6,-43.1,-11.5,i,-12.7,1.5,0.702
Cc1cc(C)c(C#N)c(SCS(=O)Cc2ccccc2)n1 (stereo not given),.,.,.,-0.9,.,9.3,.,3.6,2.0,0.737
CCc1nc(Nc2cccc(OC)c2)c2oc3ccccc3c2n1,7.0,24.8,-2.5,-0.1,-2.6,-3.5,i,15.0,-34.3,0.698
Cc1ccc(O)c(N=Cc2sc3ccccc3c2Cl)c1,8.7,-1.2,-0.5,-1.2,4.5,-16.3,i,-2.8,8.1,0.671
COc1cnc(NS(=O)(=O)c2ccc(N)cc2)nc1,.,.,.,0.8,-1.9,-14.4,i,-2.7,2.6,0.672
O=C(CN1C(=O)c2ccccc2C1=O)NCC(=O)OCC(=O)c1ccc(Cl)cc1,.,.,.,0.1,-2.0,1.7,i,-4.7,2.7,0.659
CCn1c(C2CC(=O)N(c3cc(C)cc(C)c3)C2)nc2ccccc21 (stereo not given),2.1,4.3,0.3,-0.2,-3.0,4.9,i,-1.4,6.1,0.764
CCOC(=O)c1nc2nc(C)cc(=O)n2[nH]1,.,.,.,0.6,.,-11.3,.,.,-5.7,0.693
CCn1cc(C2=NCC(C)O2)c2ccccc21 (stereo not given),.,.,.,0.0,.,-4.1,.,-3.4,0.0,0.649
O=C(CCn1nc(-c2ccccc2)ccc1=O)N1CCN(c2ccccc2)CC1,-4.6,-2.6,0.5,0.4,1.1,-6.7,i,0.6,1.2,0.679
Cc1c(/C(O)=C2\C(=O)C(=O)N(CCN(C)C)C2c2cccs2)cnn1-c1ccccc1 (stereo not given),.,.,.,-0.5,.,-5.7,.,.,5.0,0.749
Cc1ccc(C(N)=Nc2ccccc2)cc1,8.8,6.8,-1.7,0.1,-3.8,-12.2,i,.,2.8,0.678
COc1cc(OC)cc(-c2c(C#Cc3ccsc3)c3cc(-c4cccc5[nH]ccc45)ccc3n2C)c1,3.4,11.5,18.5,1.5,0.0,.,i,0.6,-11.5,0.703
Cc1noc(C)c1S(=O)(=O)N(C)C[C@H]1Oc2ccc(NC(=O)Cc3ccccc3)cc2C(=O)N([C@H](C)CO)C[C@@H]1C,14.4,-2.2,7.2,-0.2,2.6,.,i,1.4,-0.4,.
CCOc1cc2[nH]c(=O)n(Cc3cccc(OC)c3)c(=O)c2cc1OCC,.,.,.,-0.2,.,9.0,.,-7.2,-1.0,0.718
Fc1ccc(Cn2nnnc2C(c2ccc(Cl)cc2)N2CCSCC2)cc1 (stereo not given),.,.,.,0.4,.,-1.4,.,-1.6,4.8,0.712

# (listing goes on)
SMILES,rRNA inh HTS,rRNA inh HTS OD600,rRNA inh HTS RFP,A1 inh,AF4-AF9 inh,T cruzi repl,FGF22 binding,Beta cell apopt,UCH37 inh,Ecoli growth
O=C(COc1ccc(F)cc1Br)NCC1(N2CCCCC2)CCCCC1,3.1,0.3,24.7,1.7,2.8,.,.,-1.7,2.4,0.702
CN(C)C(=O)/C(C#N)=C\c1cc(Br)c(Sc2ccc(Cl)cc2)o1,.,.,.,-2.2,.,.,.,-2.0,-2.8,0.698
O=C(NCCc1csc(-c2cccnc2)n1)c1ccco1,6.1,10.8,-6.0,0.1,-8.7,-1.5,i,-7.2,1.3,0.762
COc1ccc(OCCSCc2nnc(NC(=O)Nc3ccc(Cl)cc3)s2)cc1,.,.,.,-0.2,-2.3,7.2,i,15.5,0.8,0.692
CCSc1oc(-c2ccccc2)nc1S(=O)(=O)c1ccccc1,-16.1,-27.4,2.0,0.6,.,19.0,.,1.0,3.0,0.681
CC1CCN(CC(=O)NCc2ccco2)CC1,6.7,11.9,1.3,-0.4,-2.1,-9.1,i,1.2,0.5,0.725
COc1cc(NC(=O)CSc2nnc(Cn3nnc4ccccc43)n2C)cc(OC)c1,.,.,.,-0.4,.,6.9,.,-2.3,-0.8,0.743
Cc1ccc(C(=O)NS(=O)(=O)c2ccc(N=NN(C)C)cc2)cc1,-7.0,-7.2,-2.7,-0.6,-1.9,-11.7,i,0.5,6.7,0.648
Cc1cc(NCc2ccccn2)ccc1Br,-9.3,-13.3,1.1,-3.6,1.6,-14.9,i,-11.8,1.1,0.657
O=C(CSc1nc(=O)n(CCCN2CCOCC2)c2c1CCCC2)Nc1ccccc1Cl,2.8,-1.6,-2.7,0.2,1.6,9.6,.,6.5,5.4,0.682
Cc1ccc(-c2cnc(NC(=O)c3cccc(Br)c3)s2)c(C)c1,9.7,14.6,-2.4,0.2,-7.2,-17.3,i,6.1,-7.0,0.628
CCCN(C(=O)CSc1nnc(N)s1)c1c(N)n(Cc2ccccc2)c(=O)[nH]c1=O,25.5,24.9,0.8,.,-4.7,.,i,.,-0.6,0.668
